HIV Env fusion – inhibitors of HIV-1 Env-driven cell-cell fusion, primary screen, HeLa-JRFL effector, CEM21 target cells, luciferase; 360,000 compounds, 1.1% hits; inhibition, % at 12.3 µM; AID 651610, 2012;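 active = mean replicate inhibition score of at least 50 and every replicate individually at or above 50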;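 note: 0% = plate neutral controls and 100% = maraviroc near 300 nM; one replicate is shown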
Yeast UUG start – modulators of yeast start codon fidelity, primary screen, whole organism, S. cerevisiae, single point, plate reader. S. cerevisiae UUG-firefly luciferase reporter, luminescence/redox ratio. activity score, % at 18.7 µM. 350,000 compounds, 0.13% hits;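 active = replicate mean at a twofold rise or more, about +100% in these data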;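 note: firefly luciferase made from a UUG start codon reports start codon fidelity; reporter light over untreated wells divided by growth signal over untreated wells; some hits fall short of that in this replicate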
Numbers without * were called inactive; & = joins results of further samples; [ ] = remark or other dose. Not all compounds are listed; the hit share may differ from the screen's.

SMILES	HIV Env fusion	Yeast UUG start
COCC#Cc1ccc2c(c1)O[C@H](CN(C)Cc1ccccc1)[C@@H](C)CN([C@@H](C)CO)S2(=O)=O	-0.6[16.7 µM]	10.9
O=C(C[C@@H]1C=C[C@H](NC(=O)c2ccc3c(c2)OCO3)[C@H](CO)O1)NCc1ccc(Oc2ccccc2)cc1	4.7[16.7 µM]	8.1
O=C(C[C@H]1CC[C@@H](NC(=O)C2CC2)[C@@H](CO)O1)NCC1CC1	-3.4[16.7 µM]	-9.2
C[C@H]1CCCCO[C@H](CN(C)Cc2ccc(C(=O)O)cc2)[C@@H](C)CN([C@@H](C)CO)C(=O)c2cc(NC(=O)Nc3ccc(C(F)(F)F)cc3)ccc2O1	3.1[16.7 µM]	-4.8
Cc1noc(C)c1NC(=O)Nc1ccc2c(c1)C(=O)N([C@H](C)CO)C[C@@H](C)[C@@H](CN(C)Cc1ccc(C(=O)O)cc1)OCCCC[C@H](C)O2	0.9[16.7 µM]	0.7
C[C@@H]1CN([C@H](C)CO)C(=O)Cc2cc(NC(=O)CCCCCC(=O)Nc3ccccc3N)ccc2O[C@H]1CN(C)Cc1ccc2c(c1)OCO2	9.5[16.7 µM]	19.1
C[C@@H]1CCCCO[C@H](CN(C)Cc2ccncc2)[C@H](C)CN([C@@H](C)CO)C(=O)c2cc(NS(=O)(=O)c3ccc(F)cc3)ccc2O1	3.5[16.7 µM]	3.5
C[C@@H]1CN([C@H](C)CO)C(=O)c2cc(-c3ccccc3)cnc2O[C@H]1CN(C)Cc1ccccc1	0.6[16.7 µM]	-1.0
CN(C)CC(=O)Nc1ccc2c(c1)[C@@H]1C[C@H](CC(=O)NCCN3CCCCC3)O[C@@H](CO)[C@@H]1O2	-9.1[16.7 µM]	12.3
Cc1ccc(S(=O)(=O)Nc2ccc3c(c2)C(=O)N([C@H](C)CO)C[C@H](C)[C@@H](CN(C)C(=O)Nc2ccc4c(c2)OCO4)OCCCC[C@@H](C)O3)cc1	-81.4[16.7 µM]	-10.9
C[C@@H]1CN([C@@H](C)CO)C(=O)c2cc(N(C)C)ccc2O[C@@H]1CN(C)Cc1ccc(C(=O)O)cc1	2.2[16.7 µM]	8.5
N#C[C@H]1[C@@H](c2ccc(C3=CCCC3)cc2)[C@H](CO)N1C(=O)Cc1ccncc1	7.9[16.7 µM]	5.8
C[C@@H]1CN([C@@H](C)CO)C(=O)c2cc(NC(=O)C3CC3)ccc2O[C@@H]1CN(C)CC1CCCCC1	5.3[16.7 µM]	-7.9
C[C@@H]1CN([C@H](C)CO)S(=O)(=O)c2ccc(C#Cc3ccc(F)cc3)cc2O[C@H]1CN(C)C(=O)c1ccccn1	19.6[16.7 µM]	5.4
C[C@H](O)C#Cc1ccc2c(c1)O[C@@H](CN(C)Cc1ccccc1)[C@@H](C)CN([C@@H](C)CO)S2(=O)=O	-28.7[16.7 µM]	-4.0
C[C@H](CO)N1C[C@H](C)[C@@H](CN(C)Cc2ccncc2)Oc2ccc(NC(=O)c3ccncc3)cc2C1=O	13.8[16.7 µM]	-11.6
COc1ccc(S(=O)(=O)Nc2ccc3c(c2)CC(=O)N([C@H](C)CO)C[C@H](C)[C@H](CN(C)S(=O)(=O)c2c(C)noc2C)O3)cc1	56.7*[16.7 µM]	28.1
C[C@H](CO)N1C[C@H](C)[C@@H](CN(C)Cc2ccc(-c3ccccc3)cc2)Oc2ccc(NC(=O)Cc3ccccc3)cc2CC1=O	-18.7[16.7 µM]	13.9
O=C(C[C@@H]1C[C@@H]2c3cc(NC(=O)Nc4ccccc4)ccc3O[C@@H]2[C@H](CO)O1)NCc1cccc(F)c1	44.2[16.7 µM]	-11.7
C[C@@H]1CCCCO[C@@H](CN(C)C(=O)c2ccncc2)[C@@H](C)CN([C@@H](C)CO)C(=O)c2cc(NC(=O)NC3CCCCC3)ccc2O1	8.3[16.7 µM]	4.0
C[C@H](CO)N1C[C@H](C)[C@H](CN(C)S(C)(=O)=O)Oc2ncc(/C=C/c3ccccc3)cc2C1=O	-6.1&25.0[16.7 µM]	-16.4&0.7
C[C@H]1CCCCO[C@@H](CN(C)S(=O)(=O)c2ccc(Cl)cc2)[C@@H](C)CN([C@@H](C)CO)C(=O)c2cc(NC(=O)NC3CCCCC3)ccc2O1	48.2[16.7 µM]	-1.6
Cc1noc(C)c1NC(=O)N[C@@H]1CC[C@H](CC(=O)NCCCN(C)C)O[C@H]1CO	-3.9[16.7 µM]	-5.0
CNC(=O)C[C@@H]1CC[C@H]2[C@@H](COc3ccc(NC(=O)Nc4ccc(F)cc4)cc3C(=O)N2C)O1	2.6[16.7 µM]	10.3
CS(=O)(=O)N1[C@H](CO)[C@H](c2ccccc2)[C@@H]1C#N	5.5[16.7 µM]	-6.5
Further records
SMILES	HIV Env fusion	Yeast UUG start
N#C[C@H]1[C@H](c2ccc(C#CCC3CCCC3)cc2)[C@@H](CO)N1C(=O)CN1CCOCC1	4.0[16.7 µM]	6.5
Cc1ccc(S(=O)(=O)Nc2ccc3c(c2)C(=O)N([C@@H](C)CO)C[C@@H](C)[C@@H](CN(C)C(=O)Nc2ccc(F)cc2)OCCCC[C@@H](C)O3)cc1	-38.4[16.7 µM]	3.7
C[C@H]1CN([C@@H](C)CO)C(=O)Cc2cc(NS(=O)(=O)c3cccs3)ccc2O[C@@H]1CN(C)S(=O)(=O)c1cn(C)cn1	7.3[16.7 µM]	2.5
CN1CCN(C(=O)C[C@@H]2C[C@@H]3c4cc(NC(=O)NC5CCCC5)ccc4O[C@@H]3[C@@H](CO)O2)CC1	2.0[16.7 µM]	30.8
C[C@@H]1CN([C@H](C)CO)C(=O)c2cccc(NC(=O)c3ccncc3)c2O[C@@H]1CN(C)S(=O)(=O)c1ccccc1	1.4[16.7 µM]	-7.2
C[C@@H](NC(=O)C[C@H]1CC[C@H](NC(=O)Cc2ccccn2)[C@H](CO)O1)c1ccccc1	13.4[16.7 µM]	-15.7
COc1ccc(CN(C)C[C@@H]2Oc3c(NC(=O)C4CCCCC4)cccc3C(=O)N([C@H](C)CO)C[C@@H]2C)cc1	-16.4[16.7 µM]	-2.2
C[C@@H]1CCCCO[C@@H](CN(C)Cc2ccccc2)[C@H](C)CN([C@H](C)CO)C(=O)c2cc(NS(=O)(=O)c3ccc(F)cc3)ccc2O1	2.2[16.7 µM]	6.6
COc1ccc(CN(C)C[C@H]2OCCCC[C@@H](C)Oc3ccc(NS(=O)(=O)c4cccs4)cc3C(=O)N([C@@H](C)CO)C[C@@H]2C)cc1	-2.5[16.7 µM]	21.8
CCCNC(=O)N[C@H]1CC[C@@H](CC(=O)NC2CCCCC2)O[C@@H]1CO	-3.0[16.7 µM]	-13.9
CN1C(=O)c2cc(NC(=O)C3CC3)ccc2OC[C@H]2O[C@H](CC(=O)NCc3cccc(F)c3)CC[C@@H]21	18.8[16.7 µM]	14.3
COCC(=O)Nc1ccc2c(c1)[C@@H]1C[C@@H](CC(=O)O)O[C@@H](CO)[C@@H]1O2	-1.5[16.7 µM]	7.3
COc1cccc(CNC(=O)C[C@@H]2C=C[C@H](NC(C)=O)[C@H](CO)O2)c1	8.3[16.7 µM]	-8.3
CCC(=O)Nc1ccc2c(c1)C(=O)N(C)[C@@H]1CC[C@@H](CC(=O)N3CCCCC3)O[C@@H]1CO2	-9.0[16.7 µM]	-3.3
CC(=O)N(C)C[C@H]1Oc2ncc(-c3ccccc3C)cc2C(=O)N([C@H](C)CO)C[C@@H]1C	14.7[16.7 µM]	-3.4
CNC[C@H]1Oc2c(NC(=O)c3nc4ccccc4s3)cccc2C(=O)N([C@@H](C)CO)C[C@@H]1C	17.2[16.7 µM]	7.4
CCCN1C[C@@H](C)[C@@H](OC)CN(C)C(=O)c2cc(NC(=O)c3ccccc3)ccc2OC[C@@H]1C	-8.7[16.7 µM]	9.9
CCCC(=O)Nc1ccc2c(c1)OC[C@H](C)N(CCC(F)(F)F)C[C@H](C)[C@H](OC)CN(C)C2=O	28.6[16.7 µM]	6.4
Cc1noc(C)c1NC(=O)N(C)C[C@H]1OCCCC[C@H](C)Oc2ccc(NC(=O)C3CCCCC3)cc2C(=O)N([C@H](C)CO)C[C@H]1C	-25.8[16.7 µM]	-1.2
C[C@@H]1CN([C@H](C)CO)C(=O)Cc2cc(NS(C)(=O)=O)ccc2O[C@@H]1CN(C)CC1CCCCC1	6.2[16.7 µM]	-8.1
COC(=O)C[C@H]1C[C@H]2c3cc(N(C)C)ccc3O[C@H]2[C@H](CO)O1	6.1[16.7 µM]	-9.6
COc1cccc(CNC(=O)C[C@@H]2C=C[C@@H](NS(=O)(=O)c3ccccc3OC)[C@H](CO)O2)c1	8.5[16.7 µM]	-8.8
COc1ccc(S(=O)(=O)Nc2ccc3c(c2)C(=O)N([C@H](C)CO)C[C@H](C)[C@@H](CN(C)S(=O)(=O)c2c(C)noc2C)OCCCC[C@@H](C)O3)cc1	2.7[16.7 µM]	-23.9
C[C@H]1CN([C@@H](C)CO)C(=O)c2cccc(NS(=O)(=O)c3ccc(Cl)cc3)c2O[C@@H]1CN(C)Cc1ccccc1	-11.6[16.7 µM]	6.6
C[C@H]1CN([C@@H](C)CO)C(=O)c2cccc(NC(=O)C3CC3)c2O[C@@H]1CN(C)Cc1ccc(Oc2ccccc2)cc1	-9.9[16.7 µM]	1.7

Single records, as listed above. Order of screens: HIV Env fusion | Yeast UUG start
`CNC[C@H]1Oc2c(NC(=O)c3nc4ccccc4s3)cccc2C(=O)N([C@@H](C)CO)C[C@@H]1C` reads 17.2[16.7 µM] | 7.4
`COc1ccc(S(=O)(=O)Nc2ccc3c(c2)C(=O)N([C@H](C)CO)C[C@H](C)[C@@H](CN(C)S(=O)(=O)c2c(C)noc2C)OCCCC[C@@H](C)O3)cc1` reads 2.7[16.7 µM] | -23.9
`Cc1ccc(S(=O)(=O)Nc2ccc3c(c2)C(=O)N([C@H](C)CO)C[C@H](C)[C@@H](CN(C)C(=O)Nc2ccc4c(c2)OCO4)OCCCC[C@@H](C)O3)cc1` reads -81.4[16.7 µM] | -10.9

(listing goes on)
SMILES	HIV Env fusion	Yeast UUG start
C[C@H]1CN([C@@H](C)CO)C(=O)Cc2cc(NC(=O)C3CCCCC3)ccc2O[C@@H]1CN(C)S(=O)(=O)c1cn(C)cn1	-25.6[16.7 µM]	-16.0
C[C@@H]1CN([C@H](C)CO)C(=O)c2cc(Br)cnc2O[C@H]1CN(C)C(=O)C1CCOCC1	-15.8[16.7 µM]	-3.2
C[C@@H]1CCCCO[C@H](CN(C)Cc2ccc3c(c2)OCO3)[C@H](C)CN([C@@H](C)CO)C(=O)c2cc(NC(=O)NC3CCCCC3)ccc2O1	11.0[16.7 µM]	6.2
O=C(C[C@@H]1C[C@@H]2c3cc(NC(=O)C4CCC4)ccc3O[C@@H]2[C@H](CO)O1)NCc1ccncc1	-3.1[16.7 µM]	-9.1
C[C@@H]1CN([C@@H](C)CO)C(=O)c2cc(NC(=O)Cc3cn(C)c4ccccc34)ccc2O[C@H]1CN(C)Cc1ccccc1	2.9[16.7 µM]	0.5
CCCNC(=O)C[C@@H]1CC[C@@H]2[C@@H](COc3ccc(NC(=O)Nc4ccccc4)cc3C(=O)N2C)O1	-8.2[16.7 µM]	6.5
C[C@H]1CN([C@@H](C)CO)C(=O)Cc2cc(NC(=O)c3ccncc3)ccc2O[C@@H]1CN(C)C(=O)NC1CCCCC1	11.5[16.7 µM]	-6.7
CNC[C@@H]1Oc2c(NS(=O)(=O)c3cn(C)cn3)cccc2C(=O)N([C@@H](C)CO)C[C@@H]1C	8.1[16.7 µM]	-4.5
O=C(C[C@@H]1C=C[C@H](NC(=O)C2CCC2)[C@H](CO)O1)NC1CCCCC1	-0.8[16.7 µM]	-19.8
O=C(C[C@H]1CC[C@@H](NC(=O)c2ccncc2)[C@H](CO)O1)Nc1ccccc1	-4.0[16.7 µM]	-16.5
C[C@H](CO)N1C[C@H](C)[C@@H](CN(C)Cc2ccncc2)Oc2ccc(NS(=O)(=O)c3ccc(F)cc3)cc2CC1=O	0.2[16.7 µM]	-3.4
NCC[C@@H]1CC[C@@H](NC(=O)C2CCC2)[C@@H](CO)O1	-5.9[16.7 µM]	13.6
COc1ccccc1C#Cc1ccc2c(c1)O[C@@H](CN(C)C(C)=O)[C@@H](C)CN([C@@H](C)CO)S2(=O)=O	4.1[16.7 µM]	11.5
C[C@H]1CN([C@@H](C)CO)S(=O)(=O)c2ccc(C3=CCCCC3)cc2O[C@@H]1CN(C)Cc1ccccc1F	13.2[16.7 µM]	-5.3
Cc1noc(C)c1S(=O)(=O)N(C)C[C@@H]1Oc2ccc(NC(=O)NC3CCCCC3)cc2CC(=O)N([C@@H](C)CO)C[C@@H]1C	62.0*[16.7 µM]	4.4
C[C@H]1CCCCO[C@H](CN(C)S(=O)(=O)c2ccccc2)[C@@H](C)CN([C@@H](C)CO)C(=O)c2cc(NC(=O)C3CCCCC3)ccc2O1	-26.3[16.7 µM]	21.5
C[C@@H]1CCCCO[C@H](CN(C)S(=O)(=O)c2ccc(F)cc2)[C@H](C)CN([C@@H](C)CO)C(=O)c2cc(NS(=O)(=O)c3ccc(Cl)cc3)ccc2O1	28.1[16.7 µM]	-6.6
C[C@@H]1CN([C@H](C)CO)C(=O)c2cc(NC(=O)Nc3ccccc3)ccc2O[C@@H]1CN(C)Cc1ccc(Oc2ccccc2)cc1	3.9[16.7 µM]	2.4

In the list so far, these have a CF3 group.
SMILES	HIV Env fusion	Yeast UUG start
C[C@H]1CCCCO[C@H](CN(C)Cc2ccc(C(=O)O)cc2)[C@@H](C)CN([C@@H](C)CO)C(=O)c2cc(NC(=O)Nc3ccc(C(F)(F)F)cc3)ccc2O1	3.1[16.7 µM]	-4.8
CCCC(=O)Nc1ccc2c(c1)OC[C@H](C)N(CCC(F)(F)F)C[C@H](C)[C@H](OC)CN(C)C2=O	28.6[16.7 µM]	6.4

From PubChem BioAssay
